CSC inhib: cancer stem cell viability inhibitors, primary screen, luminescence. cancer stem cell-like cells viability. inhibition, % at 7.5 µM. 300,000 tested, 1.1% active. AID 2717, 2010;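 active means mean at 75% or more and at least half the replicates too; inconclusive means mean and replicates disagree; tested in HMLE shEcad cells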;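 further: 0% = median of negative and 100% = median of positive control wells; the first replicate is given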
Rce1 inhib: yeast Rce1p protease inhibitors, primary screen, biochemical, fluorescence, cell-free homogeneous. CAAX prenyl protease 2 (Saccharomyces cerevisiae (strain ATCC 204508 / S288c)), Q03530. yeast membranes, quenched prenylated peptide cleavage fluorescence. calls only. 290,000 tested, 0.27% active. AID 2563, 2010;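 active means fall in fluorescence gain of 50% or more versus controls, with final raw signal at or below 3038400; inconclusive means same 50% fall but final raw signal above 3038400; inactive means fall in fluorescence gain under 50%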;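 further: plate controls were neutral control wells for no effect and wells lacking membranes for full effect; tested at 10 µM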
PABP polyA inh: PABP poly(A) RNA binding inhibitors, primary screen, biochemical, fluorescence polarization, uHTS. Polyadenylate-binding protein 1 (Homo sapiens), P11940. inhibition, % at 35 µM. 290,000 tested, 1% active;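 active means 50% or more with normal probe brightness, or confirmed in later tests; inconclusive means above 50% with abnormal brightness, or retests that disagree; inactive means below 50% or failed in later tests; about a fifth of its hits are not listed in these tables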;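 further: calls also rest on retests at 20 µM and on dose response follow-up; controls were probe without protein and protein plus probe with vehicle; some compounds called inactive have numbers as strong as hits; many hits fall short of the cut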
Target sequence (P11940 whole entry, looked up): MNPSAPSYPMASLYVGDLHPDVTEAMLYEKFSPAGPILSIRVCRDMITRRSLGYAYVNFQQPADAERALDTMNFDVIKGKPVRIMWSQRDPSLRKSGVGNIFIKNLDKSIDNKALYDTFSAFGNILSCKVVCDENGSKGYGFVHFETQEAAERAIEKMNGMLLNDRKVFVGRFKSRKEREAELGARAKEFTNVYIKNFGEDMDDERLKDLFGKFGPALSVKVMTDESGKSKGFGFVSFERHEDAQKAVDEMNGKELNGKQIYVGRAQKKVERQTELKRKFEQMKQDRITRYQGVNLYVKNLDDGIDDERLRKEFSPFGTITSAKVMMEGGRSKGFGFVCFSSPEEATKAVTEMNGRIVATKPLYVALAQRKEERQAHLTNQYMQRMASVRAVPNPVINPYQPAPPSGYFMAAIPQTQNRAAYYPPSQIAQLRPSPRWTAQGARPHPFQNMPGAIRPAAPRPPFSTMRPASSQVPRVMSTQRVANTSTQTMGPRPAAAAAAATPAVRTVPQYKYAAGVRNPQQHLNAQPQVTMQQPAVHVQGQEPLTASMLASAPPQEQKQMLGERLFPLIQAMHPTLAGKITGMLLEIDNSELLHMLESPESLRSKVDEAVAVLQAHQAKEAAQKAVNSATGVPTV
MT1-MMP act inh: blockers of MT1-MMP proenzyme processing, primary screen, HT1080 RFP-PRO-GFP cells, GFP/RFP fluorescence. Matrix metalloproteinase-14 (Homo sapiens), P50281. GFP/RFP ratio fluorescence, overnight; percent of plate control window, DMSO zero. GFP/RFP ratio change, % at 20 µM. 360,000 tested, 0.061% active. AID 651647, 2012;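 active means GFP/RFP ratio change of at least 30% with cell ATP level not reduced by more than half and red fluorescence within 50% of control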; further: strong numbers were not always called active
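Assay system: HT1080 cells carrying an RFP-PRO-GFP reporter | Dosing: Single dose of 20 µM compound, 1% DMSO final | Incubation: Cells overnight before dosing, compound overnight, 37 °C, 5% CO2 | Evaluation: GFP/RFP fluorescence ratio | Control set: DMSO and RFP-L50D-GFP cell wells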
Yeast UUG start: modulators of yeast start codon fidelity, primary screen, whole organism, S. cerevisiae, single point, plate reader; S. cerevisiae UUG-firefly luciferase reporter, luminescence/redox ratio; activity score, % at 18.7 µM; 350,000 tested, 0.13% active;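 active means replicate mean at a twofold rise or more, about +100% in these data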;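 further: firefly luciferase made from a UUG start codon reports start codon fidelity; reporter light over untreated wells divided by growth signal over untreated wells; some hits fall short of that in this replicate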
eIF4H inh: human eIF4H binding inhibitors, primary screen, translation initiation inhibitor project, biochemical, uHTS, fluorescence polarization. eIF4H fluorescence polarization binding assay. inhibition, % at 35 µM. 290,000 tested, 0.94% active;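 active means 50% or more with normal probe brightness, or confirmed in later tests; inconclusive means above 50% with abnormal brightness, or retests that disagree; inactive means below 50% or failed in later tests; about a fifth of its hits are not listed in these tables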;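 further: calls also rest on retests at 20 µM and on dose response follow-up; 0% = protein and probe with vehicle and 100% = probe without protein; strong numbers were not always called active; many hits fall short of the cut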
HIV Env fusion: inhibitors of HIV-1 Env-driven cell-cell fusion, primary screen, HeLa-JRFL effector, CEM21 target cells, luciferase. inhibition, % at 12.3 µM. 360,000 tested, 1.1% active. AID 651610, 2012;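 active means mean replicate inhibition score of at least 50 and every replicate individually at or above 50; inconclusive means only one of the two criteria met; inactive means mean below 50 and not all replicates reaching 50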;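 further: 0% = plate neutral controls and 100% = maraviroc near 300 nM; one replicate is shown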
eIF4H inh retest: also measured in eIF4H inh; calls as there; inhibition, %; compound at 20 µM; confirmation average;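 mean of two retest wells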
PABP polyA inh retest: further read-out of PABP polyA inh, marked with its call; inhibition, %; compound at 20 µM; confirmation repeats;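 mean of two retest wells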
MT1-MMP act inh RFP: further read-out of MT1-MMP act inh, marked with its call; RFP signal change, %; measured here: RFP expression control read;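 0 = vehicle wells; hits needed this value within 50% of zero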
* = called active by the depositor; i = inactive; ? = inconclusive; . = no result given. Rows are unselected; about 2.9% have a hit in one of these screens.

SMILES	CSC inhib	Rce1 inhib	PABP polyA inh	MT1-MMP act inh	MT1-MMP act inh RFP	Yeast UUG start	eIF4H inh	HIV Env fusion	others
CCC(C)NC(=O)C1CCN(S(=O)(=O)c2cccc3cccnc23)CC1 (centres undefined)	2	i	-8	-4	3	-15	0	3
O=C(COC(=O)c1cccnc1)c1ccc(Cl)cc1	.	i	-8	0	5	-13	-2	.
COc1cc2cc(CN(CCCO)S(=O)(=O)c3ccccc3Cl)c(=O)[nH]c2cc1OC	2	i	3	4	2	.	7	.
Cc1nn(CC(=O)N2CCN(C(=O)c3ccco3)CC2)c(C)c1[N+](=O)[O-]	-12	.	.	-1	1	-12	.	-21
O=C(NCCc1ccccc1)c1ccc(S(=O)(=O)N2CCCC2)cc1	.	.	.	6	3	14	.	-15
CC(C)S(=O)(=O)c1nsc2nc(=O)c(/C=C3\C=Nc4ccccc43)c(N)n12	-3	i	-2	1	4	2	-1	13
O=c1cc(-c2ccccc2)nc(SCc2ccc(Cl)cc2)[nH]1	5	i	4	3	4	-21	10	.
Cc1cc(S(=O)(=O)NCc2ccccc2)ccc1OCC(=O)N1CCOCC1	-11	i	-7	7	1	-14	-2	-8
COc1ccc(/C=N/n2cnnc2)cc1Br	-2	i	-2	3	6	-10	-3	40
CCCCOc1ccc(-c2ncc(Cl)cn2)cc1	-2	i	-1	4	0	-27	-1	.
O=C(NC1CCCCC1)C1CCCN1S(=O)(=O)c1cccc2nsnc12 (centres undefined)	-6	i	-3	5	-1	-11	-5	-4
CSc1ccc(/C=C(/NC(=O)c2ccc(C)cc2)C(=O)Nc2cccc(F)c2)cc1	13	i	5	5	8	-14	7	12
O=C1NCCN/C1=C\C(=O)c1cccc(Br)c1	3	i	-4	1	0	.	0	-19
Cc1cc(=O)n2nc(N3CCCC(C(=O)NCc4ccccc4Cl)C3)sc2n1 (centres undefined)	4	i	1	-3	3	-5	-11	10
CCN1CCN(S(=O)(=O)c2ccc(Cl)c(C(=O)NC(C)(C)C)c2)CC1	-6	i	0	2	0	-13	1	7
Cc1ccc(S(=O)(=O)N=S(CC2CC2(Cl)Cl)CC2CC2(Cl)Cl)cc1 (centres undefined)	.	i	-1	2	2	-30	-5	20
Cc1cccc(Cc2cnc(N3C(=N)SC(C)C3=O)s2)c1 (centres undefined)	56	i	-11	7	6	.	8	-4
O=C(c1ccc(Cn2cc(Br)cn2)cc1)N1CCN(c2ccccc2)CC1	52	i	-4	3	-2	.	-14	.
N#CCCCSc1nnc(-c2ccccn2)o1	4	i	3	8	10	-24	-3	10
O=C(O)CC1S/C(=N\N=C2CCCCCC2)N(c2ccccc2)C1=O (centres undefined)	7	i	-2	-8	1	.	-7	-4
NS(=O)(=O)c1ccc(NS(=O)(=O)c2cccs2)cc1	5	i	-9	0	0	-9	-10	.
COc1cc2c(cc1OC)C(c1cccs1)N(C(=O)c1cccnc1)CC2 (centres undefined)	2	i	-3	-3	-12	-3	-3	-13
Cc1ccc2[nH]c3c(c2c1)CN(C(=O)CN1CC(C)OC(C)C1)CC3 (centres undefined)	-10	.	?	-49	4	-7	?	.
COc1cc(Cl)c(C)cc1NC(=O)CSc1sc2c(O)cc(=O)[nH]c2c1C#N	-2	i	44*	-3	5	-11	71*	-5	eIF4H inh retest=86*;PABP polyA inh retest=86*
O=S(=O)(c1ccccc1)N1CCN(c2nnc(-c3ccccc3)c3ccccc23)CC1	16	i	6	-6	-7	-16	-9	6
O=C(O)c1ccc(NS(=O)(=O)c2cccc3nsnc23)cc1	13	i	-4	6	1	-9	-3	.
O=S(=O)(NCCc1ccc(F)cc1)c1cc(C(F)(F)F)ccc1Br	.	.	.	4	3	-12	.	38
Cc1cc(C(=O)CN2CCCC(C)C2)c(C)n1-c1ccc(F)cc1 (centres undefined)	10	i	16	1	3	.	16	-10
CCCC(C)NC(=O)COc1ccc(S(=O)(=O)N2CCCC2)cc1 (centres undefined)	-11	i	0	-2	1	0	5	-29
CCCS(=O)(=O)N1CCCC(C(=O)NCCCN2CCN(c3cccc(Cl)c3)CC2)C1 (centres undefined)	.	i	-10	12	-1	9	-12	.
COc1cccc(/C=N/N=C(\N)c2nonc2N)c1O	-2	i	-8	11	5	.	-12	-67
COc1ccc(OC)c(S(=O)(=O)NCc2csc(-c3ccccc3)n2)c1	3	i	-1	-2	-2	-1	-2	.
COC(=O)CN(Cc1ccccc1)S(=O)(=O)c1ccc(OC)c(OC)c1	-12	i	1	-1	-7	-18	8	-19
Clc1ccc(OCc2nn3c(-c4ccccc4)nnc3s2)c(Cl)c1	.	i	1	4	7	-10	-4	-79
O=C(CNC(=O)c1ccc(Br)o1)NCC1CCCO1 (centres undefined)	0	i	-4	3	7	-15	-12	-5
COc1ccc(C(=O)NCC(=O)OC2CCCCC2=O)cc1 (centres undefined)	7	i	-1	11	19	-8	100	.	eIF4H inh retest=-7;PABP polyA inh retest=-4
O=C(Nc1cccc(CNCCc2c[nH]c3ccccc23)c1)c1ccccc1Cl	22	i	2	-3	-2	0	14	40
CCCCNC(=O)C1(C)CCCCN1C(=O)c1cc(C)n(C(C)(C)C)n1 (centres undefined)	.	.	.	-1	1	-1	.	1
CN1CCN(C(=O)N2c3ccccc3CCc3ccccc32)CC1	6	i	0	-12	0	.	-11	4
COc1ccccc1OCCOCCOc1ccc(C)cc1Br	1	i	10	-1	-1	.	-1	-2
Cc1cc(C)n(-c2ccc(C(=O)OC(C)C(=O)Nc3ccc(C(N)=O)cc3)cc2)n1 (centres undefined)	.	.	.	3	-6	-16	.	-20
COCCCNC(=O)CN(c1ccc(Cl)c(Cl)c1)S(C)(=O)=O	-12	i	-6	-3	2	-11	-4	.
COCCN1C(=O)c2ccc(C(=O)Nc3cccnc3)cc2C1=O	-15	i	6	2	3	-13	0	-17
Cc1cccc(NC(=O)/C(C#N)=C/c2cn(CC(=O)NCc3ccco3)c3ccccc23)c1	24	.	11	-1	-4	.	-6	-25
Cc1ccc(NC(=S)NNC(=O)Cn2nc(C(F)F)cc2C(F)F)cc1	-4	i	-4	4	2	.	11	6
O=C(CCCn1c(=O)[nH]c2cc(Cl)ccc2c1=O)NC1CCCCCC1	-1	i	-1	1	-3	-17	-2	6
Cc1nn(-c2ccccc2)c(C)c1/C=N/N1CCN(c2ccccn2)CC1	-1	i	2	0	-3	.	27	26
N#Cc1ccc(C(=O)Nc2cc(-c3ccccc3)nn2-c2ccccc2)cc1	6	.	.	2	-6	-13	.	24
CCOc1ccc(NC(=O)CCN2CCN(S(=O)(=O)c3ccc(Cl)cc3)CC2)cc1	.	i	-2	-1	-11	22	10	.
O=C(COC(=O)Cc1ccc(S(=O)(=O)N2CCOCC2)s1)NCc1ccc(Cl)cc1	-3	i	16	-9	-4	7	-3	-158
COc1ccc(N2C(=O)CC(N3CCCCC3)C2=O)cc1 (centres undefined)	-16	i	15	0	-1	.	9	19
Cc1cc(Br)ccc1SCC(=O)OCC(=O)NCc1ccco1	0	i	.	-9	-6	-4	.	-7
O=C1C(Cc2ccccc2)Nc2ncnc(N3CCCCC3)c2N1Cc1ccccc1 (centres undefined)	15	.	.	-2	1	-1	.	10
CCOC(=O)N1CCN(S(=O)(=O)c2ccc3[nH]cc(C(=O)O)c(=O)c3c2)CC1	6	i	0	0	-2	-3	-2	.
CN(c1cccc(NC(=O)c2ccc(N(C)S(=O)(=O)c3ccccc3)cc2)c1)S(C)(=O)=O	2	i	7	-2	-28	.	-2	-8
CCOC(=O)N1CCN(C(=O)CSc2ccc(C(F)(F)F)cc2[N+](=O)[O-])CC1	-3	i	12	3	5	1	56	0	eIF4H inh retest=-6;PABP polyA inh retest=-5
CCCOc1ccccc1/C=N/NC(=O)C1CC1	2	i	-1	-1	0	-11	6	6
Cc1cc(C)n2nc(C)c(-c3ccc(Cl)cc3)c2n1	-3	i	10	4	-5	-12	-1	32
COc1cc(C(=O)N/N=C(\Cc2ncc[nH]2)c2ccccc2)cc(OC)c1OC	91*	i	-8	7	9	.	7	2
COc1ccc2c(C)cc(N3CCN(Cc4ccccc4)CC3)nc2c1	24	i	27	-1	0	-12	-1	-7

Of the compounds above, these contain a cyano group:
SMILES	CSC inhib	Rce1 inhib	PABP polyA inh	MT1-MMP act inh	MT1-MMP act inh RFP	Yeast UUG start	eIF4H inh	HIV Env fusion	others
N#CCCCSc1nnc(-c2ccccn2)o1	4	i	3	8	10	-24	-3	10
COc1cc(Cl)c(C)cc1NC(=O)CSc1sc2c(O)cc(=O)[nH]c2c1C#N	-2	i	44*	-3	5	-11	71*	-5	eIF4H inh retest=86*;PABP polyA inh retest=86*
Cc1cccc(NC(=O)/C(C#N)=C/c2cn(CC(=O)NCc3ccco3)c3ccccc23)c1	24	.	11	-1	-4	.	-6	-25
N#Cc1ccc(C(=O)Nc2cc(-c3ccccc3)nn2-c2ccccc2)cc1	6	.	.	2	-6	-13	.	24

Continued.
SMILES	CSC inhib	Rce1 inhib	PABP polyA inh	MT1-MMP act inh	MT1-MMP act inh RFP	Yeast UUG start	eIF4H inh	HIV Env fusion	others
Cc1ccc(NS(=O)(=O)Cc2ccccc2)nc1	-9	i	7	1	4	.	-1	16
CCOc1ccc(CC2CC(=O)NC2=O)cc1 (centres undefined)	-15	i	4	4	5	-17	-7	.
O=C(NC1CCCCCCC1)c1ccccc1O	10	i	38	2	3	-1	2	.
CC(C)(C)NC(=O)CN(C(=O)CNS(=O)(=O)c1ccc(Cl)cc1)c1ccc2c(c1)OCCO2	10	i	-9	-1	0	-2	-8	6
CCN1C(=O)NC2=C(C(=O)c3ccccc32)C1c1ccccc1F (centres undefined)	6	i	-6	-14	-19	-11	-4	-62
O=C(Cn1cnc2c(nnn2Cc2ccccc2)c1=O)NCC1CCCO1 (centres undefined)	-10	i	-15	2	9	-14	7	-19
c1coc(-c2nc3ccccc3nc2-c2ccco2)c1	-12	i	85*	27	4	-12	102*	.
Cc1ccc2c(C(=O)CCl)c(C)[nH]c2c1	22	i	1	3	0	-13	-3	-16
Cc1ccccc1OCCC(=O)OCC(=O)N1CCN(S(=O)(=O)c2ccc(Cl)cc2)CC1	6	i	.	0	-2	7	.	0
N/C(=N\OC(=O)COc1ccc(Br)cc1Cl)c1ccccn1	42	i	-7	-2	-1	.	-13	-99
CC(=O)N1c2ccccc2NC(=O)C1(C)C	-3	i	0	-2	-1	-14	1	-31
Cc1ccc(C(=O)O)cc1N1C(=O)c2cccc3cc(Br)cc(c23)C1=O	-7	i	-3	-1	-2	-12	-7	.
Cc1ccc2nc(-c3cccnc3)oc2c1	.	i	-7	2	2	1	-1	-248
COc1ccc(CCNc2cc(-c3ccccc3)nc3ncnn23)cc1	.	i	-7	-3	-8	-19	2	.
NC(=NC(=O)c1ccc(OCC(F)(F)F)nc1)c1ccccc1	-1	i	2	2	1	.	2	3
O=C(COC(=O)/C=C/c1ccc([N+](=O)[O-])cc1)NNC(=O)c1ccccc1	-16	.	.	2	0	-12	.	5
Cc1csc(-c2coc3cc(O)cc(C)c3c2=O)n1	.	i	3	-2	-1	-21	2	.

Screening results: PubChem, several laboratories
